Source: PubChem
miR-21 reporter: miR-21 reporter, rising signal. Potency, µM (highest dose often 38.3 µM), for the others: at the highest dose reporter change, positive = more light. HeLa miR-21 FLuc reporter, luciferase, 48 h. 340,000 tested, under 10 active; active = well fitted rising curve with a large enough effect; inconclusive = small, poorly fitted or top-dose-only effect; inactive = no such curve, though single readings can be large or run the other way;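 further: % of control where 0% means no effect; miR-21 action dims this reporter so a rising signal means less miR-21 action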
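HeLa miR-21-FLuc reporter line, endogenous miR-21; 2000 cells/well in DMEM/10% FBS; compound titration up to ~40uM final, 48 h, 37 degree Celsius; luciferase detection reagent, 15 min lysis, CCD luminescence.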
Rango release inh: prevents RanGTP from dissociating the Rango-importin beta complex. O95149+P62826. Biochemical FRET Rango-importin beta, RanGTP-induced dissociation. Potency, µM (titrated, usually from 46.1 µM), without a hit: at the top dose activity change, negative = inhibition. 0.071% of 340,000 active. AID 540253; active means falling FRET ratio curve, often poorly fitted, with flat reads before Ran was added; inconclusive means other falling curves, or compound fluorescence or quenching; inactive means flat or rising ratio curve;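 further: potency means the concentration at half of the fitted maximal effect; % of control where 0% means no effect; nearly all actives have a fitted effect of over 45% in size; -100% = wells without RanGTP and RCC1; the record marks most hits as doubtful in a second field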
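Quantitative HTS using a FRET biosensor: 0.1 uM Rango, 0.25 uM importin beta, 0.6 uM Ran, 2 mM GTP, 0.2 uM RCC1 final, PBS with DTT, Tween-20 and BSA. Post-read taken 45 min after Ran addition.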
GLA inh pH 4.5: blocks human alpha-galactosidase A at pH 4.5 | activity change, negative = inhibition, % at 105 µM | 230,000 tested, under 10 active | AID 1467 | purified enzyme, 4-MU-alpha-Gal fluorescence, pH 4.5; inconclusive = small, poorly fitted or top-dose-only inhibition, or a rising curve; inactive = flat fitted curve, though single readings scatter; no compound was filed as active;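 further: 0% = full activity with enzyme and -100% = basal without enzyme; dose as in the result columns while the protocol names 77 µM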
Rango-impB inh: Rango-importin beta binding inhibition; AID 540263; Q14974; Rango CFP/YFP FRET sensor + importin beta, 45 min; Potency, µM (series often up to 92.2 µM), without a hit: top-dose inhibition of complex formation; 0.031% of 340,000 active; active = rising FRET ratio curve, often small or poorly fitted; inconclusive = mostly compound fluorescence or quenching in the first reads; inactive = flat curves in all reads;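 further: potency means the concentration at half of the fitted maximal effect; 0% = DMSO wells and 100% = buffer wells lacking importin beta; nearly all actives have a fitted effect of over 15% in size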
Target sequence (Q14974 whole entry, looked up): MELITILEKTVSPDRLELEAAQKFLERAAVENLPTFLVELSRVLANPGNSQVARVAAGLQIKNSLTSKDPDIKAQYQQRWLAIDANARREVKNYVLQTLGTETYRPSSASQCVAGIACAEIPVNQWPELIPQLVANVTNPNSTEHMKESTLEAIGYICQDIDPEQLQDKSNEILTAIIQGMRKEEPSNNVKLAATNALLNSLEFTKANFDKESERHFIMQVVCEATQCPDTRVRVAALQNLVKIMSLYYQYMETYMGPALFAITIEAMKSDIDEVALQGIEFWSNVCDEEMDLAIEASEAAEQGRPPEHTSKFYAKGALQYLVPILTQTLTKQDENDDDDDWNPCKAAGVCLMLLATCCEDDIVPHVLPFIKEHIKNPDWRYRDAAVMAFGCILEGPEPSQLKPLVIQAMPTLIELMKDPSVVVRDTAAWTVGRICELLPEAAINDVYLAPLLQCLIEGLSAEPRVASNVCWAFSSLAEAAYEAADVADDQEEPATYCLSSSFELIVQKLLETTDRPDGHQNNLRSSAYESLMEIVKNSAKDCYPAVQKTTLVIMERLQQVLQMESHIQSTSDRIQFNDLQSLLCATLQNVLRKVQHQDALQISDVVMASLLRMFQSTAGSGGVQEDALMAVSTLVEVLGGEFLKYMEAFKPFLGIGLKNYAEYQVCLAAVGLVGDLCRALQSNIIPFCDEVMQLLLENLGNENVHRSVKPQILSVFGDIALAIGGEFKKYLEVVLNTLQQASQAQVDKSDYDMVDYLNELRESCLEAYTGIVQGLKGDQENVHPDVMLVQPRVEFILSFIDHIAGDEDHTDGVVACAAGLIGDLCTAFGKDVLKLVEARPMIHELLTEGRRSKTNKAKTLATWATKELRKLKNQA
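FRET biosensor Rango (snurportin 1 IBB between N-terminal EYFP and C-terminal Cerulean), 50 nM in PBS/1 mM DTT/0.02% Tween-20/0.1% BSA, preincubated 5 min RT with compound; 0.125 microM importin beta added, 45 min RT, CFP/YFP FRET ratio read.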
An asterisk follows results filed as active; & = joins results of further samples. This is a subset (hit frequency here may not be typical).

COc1cc(OC)c2c(OC)cccc2n1 was read as miR-21 reporter 1.6%, Rango release inh -8.7%, GLA inh pH 4.5 -3.2 and Rango-impB inh 0.3%.
For O=C(Nc1ncc(Cl)cn1)c1cccs1 the results were miR-21 reporter -28.6%, Rango release inh 11.4%, GLA inh pH 4.5 6.7 and Rango-impB inh -4.9%.
Screening COc1ccc(NC(=O)CN(C)C(=O)C2CC(=O)N(CCc3ccc(OC)c(OC)c3)C2)cc1 (centres undefined) returned Rango release inh 8.6% and Rango-impB inh 1.1%.
`Cc1ccccc1C(=O)N[C@H](C(=O)OCC(=O)c1ccc[nH]1)C(C)C` gave miR-21 reporter -2.0%, Rango release inh 54.6%, GLA inh pH 4.5 3.9 and Rango-impB inh -1.1%.
O=C(O)C1CC=CCC1C(=O)NCCc1csc(-c2ccccc2)n1 (centres undefined) was read as miR-21 reporter -64.2%, Rango release inh 5.7%, GLA inh pH 4.5 -13.1 and Rango-impB inh 0.3%.
`COC(=O)C1=CN(Cc2ccc(OC)c(OC)c2)C=C(C(=O)OC)C1c1cccc(O)c1` gave miR-21 reporter -21.3%, Rango release inh inconclusive and Rango-impB inh inconclusive.
CCOC(=O)C1CCN(c2ncnc3c2cnn3-c2ccc(Cl)cc2)CC1 was read as miR-21 reporter -0.7%, Rango release inh 15.5%, GLA inh pH 4.5 -3.2 and Rango-impB inh 1.6%.
`CCn1ncc(Br)c1C(=O)Nc1c(C)nn(Cc2c(F)c(F)c(F)c(F)c2F)c1C` gave miR-21 reporter -3.2%, Rango release inh -7.4% and Rango-impB inh 0.4%.
Cc1ccc(NC(=O)CSc2nnc(N)s2)cc1S(=O)(=O)N1CCCCC1 was read as miR-21 reporter 2.5%, Rango release inh 6.5% and Rango-impB inh 0.6%.
`O=C(Nc1cccc(O)c1)c1ccc(Br)cc1` gave miR-21 reporter -25.1%, Rango release inh -11.3%, GLA inh pH 4.5 8.4 and Rango-impB inh 0.3%.
Screening CC(C)CC(O)C1CCN(C(=O)CCc2nnc(-c3ccc4c(c3)OCO4)o2)CC1 (centres undefined) returned miR-21 reporter -2.4%, Rango release inh 15.1% and Rango-impB inh -1.8%.
`COc1cc(OC)cc(-c2nnc(SCC(=O)N3CCCCC3)o2)c1` gave miR-21 reporter -19.9%, Rango release inh 10.7%, GLA inh pH 4.5 7.1 and Rango-impB inh 4.4%.
N#Cc1c(C(F)(F)F)cc(-c2cccs2)nc1SCc1ccc(Cl)nc1 was read as miR-21 reporter -3.1%, Rango release inh inconclusive, GLA inh pH 4.5 27.5 and Rango-impB inh -1.3%.
For COc1nc(C)ccc1-c1noc(-c2ccccn2)n1 the results were miR-21 reporter -57.9%, Rango release inh -3.9%, GLA inh pH 4.5 -0.7 and Rango-impB inh 1.1%.
For CC1Cc2ccccc2N1c1ncnc2nc[nH]c12 (centres undefined) the results were miR-21 reporter -20.8%, Rango release inh 1.0%, GLA inh pH 4.5 -1.6 and Rango-impB inh -0.4%.
Screening CCC(=O)N1CCCN(S(=O)(=O)c2ccc(C)cc2)C1c1ccc(OC)cc1 (centres undefined) returned miR-21 reporter -0.7%, Rango release inh 9.8% and Rango-impB inh -3.9%.
Screening CC(C(=O)OCC(=O)NC1CCCCC1)N1C(=O)c2ccccc2C1=O (centres undefined) returned Rango release inh -19.7% and Rango-impB inh -1.5%.
Cc1ccc2[nH]c3c(=O)n(CC(=O)Nc4ccccc4N4CCN(C)CC4)ncc3c2c1 was read as miR-21 reporter 0.6%, Rango release inh -6.5% and Rango-impB inh -5.7%.
CC1CCC2(CC1)NC(=O)N(Cc1cc(=O)n3ccsc3n1)C2=O (centres undefined) was read as miR-21 reporter 2.1%, Rango release inh inconclusive, GLA inh pH 4.5 1.3 and Rango-impB inh 5.5%.
For COc1cccc(NC(=O)Cn2c(=O)n(CCC(=O)NC3CCN(Cc4ccccc4)CC3)c(=O)c3ccccc32)c1 the results were miR-21 reporter 1.0%, Rango release inh -0.8%, GLA inh pH 4.5 15.2 and Rango-impB inh 1.2%.

Random excerpt: 4 entries already listed, in no set order.
CC1CCC2(CC1)NC(=O)N(Cc1cc(=O)n3ccsc3n1)C2=O (centres undefined) was read as miR-21 reporter 2.1%, Rango release inh inconclusive, GLA inh pH 4.5 1.3 and Rango-impB inh 5.5%.
N#Cc1c(C(F)(F)F)cc(-c2cccs2)nc1SCc1ccc(Cl)nc1 was read as miR-21 reporter -3.1%, Rango release inh inconclusive, GLA inh pH 4.5 27.5 and Rango-impB inh -1.3%.
For COc1nc(C)ccc1-c1noc(-c2ccccn2)n1 the results were miR-21 reporter -57.9%, Rango release inh -3.9%, GLA inh pH 4.5 -0.7 and Rango-impB inh 1.1%.
Screening CC(C(=O)OCC(=O)NC1CCCCC1)N1C(=O)c2ccccc2C1=O (centres undefined) returned Rango release inh -19.7% and Rango-impB inh -1.5%.

(list continues)
`C#Cc1ccc([C@@H]2C=C(C(=O)OCC=C)O[C@H](OCc3ccc(CO)cc3)C2)cc1` gave miR-21 reporter -2.6%, Rango release inh 0.2%, GLA inh pH 4.5 -14.4 and Rango-impB inh 1.4%.
Screening CC1CC(C)(C)NC(=S)N1CCCC(=O)Nc1ccccc1F (centres undefined) returned miR-21 reporter -2.7%, Rango release inh 1.0%, GLA inh pH 4.5 2.1 and Rango-impB inh -1.6%.
`Cc1cc(=O)n2nc(N3CCC(C(=O)NCc4ccccc4Cl)CC3)sc2n1` gave miR-21 reporter -9.5%&2.3%, Rango release inh -6.2% and Rango-impB inh 0.1%.
For CC(C)NS(=O)(=O)c1ccc(CCC(=O)NCc2cccnc2)cc1 the results were miR-21 reporter -1.4%, Rango release inh -0.8%, GLA inh pH 4.5 4.6 and Rango-impB inh 3.1%.
COc1ccc2[nH]c(=O)c(COC(=O)c3cccs3)cc2c1 was read as miR-21 reporter -11.2%, Rango release inh 0.2%, GLA inh pH 4.5 1.6 and Rango-impB inh -7.2%.
Screening Cc1onc(-c2ccccc2)c1C(=O)NNC(=S)NC(=O)c1ccc(Br)cc1 returned miR-21 reporter -11.1%, Rango release inh 6.7%, GLA inh pH 4.5 2.2 and Rango-impB inh -1.1%.
For CCCC(=O)Nc1c(-c2cccc(C)c2)c(=O)c2ccccc2n1C the results were miR-21 reporter -3.2%, Rango release inh 10.1% and Rango-impB inh -1.7%.
For CC1(C)C2CCC1(CS(=O)(=O)N1CCCC1C(=O)O)C(=O)C2 (centres undefined) the results were Rango release inh 6.9% and Rango-impB inh 0.4%.
COc1ccccc1N=c1sc2ccccc2n1C was read as miR-21 reporter -11.1%, Rango release inh -0.3%, GLA inh pH 4.5 -1.7 and Rango-impB inh 3.0%.
N#Cc1ccc(-c2cn3c(n2)SCC3)cc1 was read as miR-21 reporter -54.6%, Rango release inh -12.8% and Rango-impB inh 0.0%.
For CC(=O)NCCNC(=O)c1ccc(Sc2ccccc2)c([N+](=O)[O-])c1 the results were miR-21 reporter -15.2%, Rango release inh 5.3%, GLA inh pH 4.5 6.7 and Rango-impB inh -0.3%.
CCOC(=O)c1[nH]c(C)c(C(=O)Nc2ccc(F)cc2)c1C was read as miR-21 reporter -39.0%, Rango release inh inconclusive, GLA inh pH 4.5 -3.9 and Rango-impB inh 0.1%.
COc1cccc(NC(=O)NC2CCN(Cc3nnnn3Cc3ccc4c(c3)OCO4)CC2)c1 was read as miR-21 reporter -1.5%, Rango release inh -10.9%, GLA inh pH 4.5 -9.1 and Rango-impB inh -1.9%.
COc1ccc(CC(=O)Nc2nc3ccccc3s2)cc1S(=O)(=O)N1CCOCC1 was read as miR-21 reporter -4.4%, Rango release inh 20.8%, GLA inh pH 4.5 -5.2 and Rango-impB inh 0.7%.
C=CCn1c(Sc2nc(C)cs2)nc2c1c(=O)[nH]c(=O)n2C was read as miR-21 reporter -2.6%, Rango release inh -13.4%, GLA inh pH 4.5 7.6 and Rango-impB inh -1.7%.
COc1ccc(N(CC(=O)Nc2ccc(C)cn2)S(=O)(=O)c2c(C)nn(C)c2C)cc1 was read as miR-21 reporter 0.6%, Rango release inh 10.4%, GLA inh pH 4.5 1.7 and Rango-impB inh -1.0%.
COc1ccc(NS(=O)(=O)c2ccc(C)cc2)c([N+](=O)[O-])c1 was read as miR-21 reporter -14.7%, Rango release inh 29.5%, GLA inh pH 4.5 -5.4 and Rango-impB inh 6.8%.
For CCC(=O)Nc1ccccc1C(=O)OCC(=O)c1cccc2ccccc12 the results were miR-21 reporter -21.9%, Rango release inh -16.4%, GLA inh pH 4.5 -10.8 and Rango-impB inh -3.7%.
`C=CCn1c(=N)n(CC(=O)c2ccc(Br)cc2)c2ccccc21` gave miR-21 reporter -11.6%, Rango release inh 33.7% and Rango-impB inh 5.1%.
`Cc1ccsc1/C=C/C(=O)O` gave miR-21 reporter -2.8%, Rango release inh -4.2%, GLA inh pH 4.5 -1.6 and Rango-impB inh -3.5%.
CCNC(=O)c1ccccc1SCC(=O)Nc1ccc(F)cc1 was read as miR-21 reporter -0.5%, Rango release inh -0.8%, GLA inh pH 4.5 18.9 and Rango-impB inh 1.7%.
For OCC1(Cc2ccc(F)cc2)CCCN(CCc2ccccc2)C1 (centres undefined) the results were miR-21 reporter -5.6%, Rango release inh -12.2% and Rango-impB inh -5.3%.
COc1ccc(C(=O)/C=C(\C)NCc2ccc3c(c2)OCO3)cc1 was read as miR-21 reporter -20.6%, Rango release inh -8.3%, GLA inh pH 4.5 -2.7 and Rango-impB inh 0.1%.
Screening COc1ccccc1N1CCN(C(=O)CCCCn2c(=O)[nH]c3ccsc3c2=O)CC1 returned miR-21 reporter -4.5%, Rango release inh 0.3%, GLA inh pH 4.5 7.5 and Rango-impB inh -2.1%.
COc1ccc(C)cc1S(=O)(=O)N1CCN(C)CC1c1ccccc1 (centres undefined) was read as Rango release inh 0.2% and Rango-impB inh 1.8%.
CCc1cccc(NS(=O)(=O)c2csc(C(N)=O)c2)c1 was read as miR-21 reporter 12.2%, Rango release inh -1.9% and Rango-impB inh 2.9%.
Screening CCCNC(=O)c1nc(C)c(C)nc1C(=O)Nc1cccc(Cl)c1 returned miR-21 reporter -4.8%, Rango release inh -7.2%, GLA inh pH 4.5 -12.6 and Rango-impB inh -2.0%.
`O=C(CN1CCN(Cc2ccccc2Cl)C1=O)NCc1cccnc1` gave miR-21 reporter 1.4%, Rango release inh -3.8%, GLA inh pH 4.5 0.0 and Rango-impB inh 0.3%.
Screening O=C(CCCCCn1c(=O)[nH]c2ccsc2c1=O)NCc1ccc(F)cc1 returned miR-21 reporter -2.4%, Rango release inh -14.4%, GLA inh pH 4.5 -0.7 and Rango-impB inh 0.5%.
O=C(c1[nH]ncc1[N+](=O)[O-])N1CCOCC1 was read as miR-21 reporter -2.7%, Rango release inh 3.7% and Rango-impB inh 1.4%.
Nc1cc(S(=O)(=O)Nc2cc(Cl)ccc2Cl)ccc1N1CCOCC1 was read as miR-21 reporter 4.6%, Rango release inh 0.5%, GLA inh pH 4.5 -8.4 and Rango-impB inh -3.8%.
COc1cccc(/C=N/Nc2cc(C)nc(-c3ccccc3O)n2)c1O was read as miR-21 reporter 22.1%, Rango release inh 10.8%, GLA inh pH 4.5 -5.0 and Rango-impB inh -1.1%.
`COc1ccc(Nc2nc(N3CCOCC3)nc(N3CCOCC3)n2)c(OC)c1` gave miR-21 reporter -3.5%, Rango release inh 14.2% and Rango-impB inh -1.4%.
Screening O=c1oc2ccccc2nc1/C=C(\O)c1ccc(Br)cc1 returned miR-21 reporter 1.5%, Rango release inh 0.4%, GLA inh pH 4.5 -0.3 and Rango-impB inh -3.0%.
`O=C1N(c2ccccc2)C[C@@H]2C[C@@H](c3cc4ccccc4o3)N3CCC[C@@]123` gave miR-21 reporter -5.3%, Rango release inh 6.7%, GLA inh pH 4.5 0.5 and Rango-impB inh 0.0%.
Screening CCCCCCSc1ccc(-c2nc3cc(C)ccn3c2NC2CCCCC2)cc1 returned Rango release inh -14.1% and Rango-impB inh 0.2%.
For C=CCN1C(=O)CSc2ccc(C(=O)NCc3ccco3)cc21 the results were miR-21 reporter -0.3%, Rango release inh 8.2%, GLA inh pH 4.5 -0.2 and Rango-impB inh 0.1%.
`O=[N+]([O-])c1cc(S(=O)(=O)N2CCCC2)ccc1OCc1ccccc1` gave miR-21 reporter -14.9%, Rango release inh -12.8% and Rango-impB inh -0.5%.
